Source: PubChem
AID504770: growth inhibition of E. coli YBA685, primary screen, V. cholerae RctB inhibitors. z-score (no concentration beside the values). E. coli YBA685 rctB-dependent plasmid, OD600 growth, 3 h; hits give low values. hit rate 0.27% among 130,000;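 active = z-score under -2 on both plates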;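 also: wells of about 30 µL received 100 nL stock; score is relative to mean and SD of the test wells; the first replicate is given; strong numbers were not always called active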
CapD inh: Bacillus anthracis CapD inhibitors, primary screen, biochemical, fluorescence intensity; AID 492967, 2010; purified CapD enzyme, fluorescence intensity read-out; hits give low values; some hits fall short of the stated cut; hit rate 0.23% among 140,000; z-score (test concentration not listed);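 active = z-score under -4 in either of two replicates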;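 also: stock transfer was 100 nL into about 40 µL; score is relative to mean and spread of the plate; one replicate is shown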
Active calls of the source: *; i = inactive; x = no result given; & = joins results of further samples. A portion of the library (hit frequency here may not be typical).

SMILES	AID504770	CapD inh
CCC(=O)NC1(C(F)(F)F)N=C(c2ccccc2)N(C2CCCC2)C1=O (centres undefined)	-0.45	0.22
COc1ccccc1NS(=O)(=O)c1ccc2c(c1)CCN2C(=O)CCC(=O)O	-0.4	1.8
Cc1noc(C)c1S(=O)(=O)NCCCN1CCCC(C)C1 (centres undefined)	-1.1	-0.36
Cc1ccnc(NC(c2ccc3c(c2)OCO3)c2c(C)[nH]c3ccccc23)c1 (centres undefined)	-0.65	-0.49
CCSc1nnc(CSc2ncccn2)n1C	-1	-0.98
Cc1ccc2nc(-c3ccc(N4C(=O)C=CC4=O)cc3)sc2c1	-0.45	57
O=C(Cn1ncn2nc(-c3ccco3)cc2c1=O)NCc1ccccc1	-1.6	-0.12
COC(=O)c1c2c(n3cc4ccccc4cc13)C(=O)c1ccccc1C2=O	1.5	0.62
O=C(Cn1c2ccccc2c(=O)c2ccccc21)Nc1cc(Sc2ccc(F)cc2)cc([N+](=O)[O-])c1	x	5.7
CCc1cc2c(NCCN3CCCCC3)ncnc2s1	-1.1	x
Oc1ccccc1C1NN=C(c2ccccc2)S1 (centres undefined)	1.1	x
N#Cc1cccc(NC(=O)COC(=O)C2=NNC(=O)CC2)c1	-1.4	x
Cc1ccc(NC(=O)c2c(O)c3ccccc3n(CCC(C)C)c2=O)c(Br)c1	x	-0.08
NC(=O)C1CCN(C(=O)c2ccc3c(=O)n(-c4ccc(F)cc4)c(SCC(=O)N4CCCC4)nc3c2)CC1	x	2.6
CC1CCc2cc(F)ccc2N1C(=O)c1cccs1 (centres undefined)	0.35	0.46
Cc1ccc(Cn2c(SC(C)C(N)=O)nc3ccccc3c2=O)cc1 (centres undefined)	0.95	x
COc1ccc2ccccc2c1CN1CCN(C(=O)OCc2c(F)ccc(F)c2F)CC1	x	0.76
CC1CN(C(=O)C(C)Sc2nc(-c3ccccc3)cc(C(F)(F)F)n2)CC(C)O1 (centres undefined)	0.05	x
NC(=O)CSc1nnc2scc(-c3ccc(Cl)cc3)n12	0.4	0.29
O=c1oc2ccccc2n1CN1CC=C(c2ccccc2)CC1	0.15	x
CCOc1ccc(C2=NCCNC3=C2C(c2ccccc2)N(c2ccccc2)C3=O)cc1 (centres undefined)	-0.15	-0.68
COC(=O)C1CC(OCc2ccccc2)CN1S(=O)(=O)c1ccc(Br)cc1 (centres undefined)	x	0.7
CCC(=N)C1=C(O)CC(C)(C)CC1=O	0.15	x
CN(C)c1ccc(NC(=O)Nc2cccs2)cc1	0.65	0.14
Cc1ccccc1-n1c(-c2cccnc2)noc1=O	-0.8	-0.32
O=C(CC(Sc1ccccc1C(=O)O)c1ccc(F)cc1)c1ccc(F)cc1 (centres undefined)	-0.45	-1.5
Cc1ccc2oc(=O)c3cnn(CC(=O)N(C)c4ccccc4)c3c2c1	-0.35	-0.12
Cc1c(/C=C/C(=O)Oc2ccc(C#N)cc2)sc2ccccc12	0.1	1.2
CCOc1ccc(-n2c(C)nc3c(cnn3-c3ccccc3Cl)c2=O)cc1	2.1	-0.26
C=CCn1c(NC(C)=O)nc2ccccc21	x	0.53
C/C(=C(/C#N)C(N)=O)c1ccccc1	-0.8	-0.52
COc1ccc(C2C(C#N)=C(N)OC3NN=C(C)C32)cc1COc1cccc(Cl)c1 (centres undefined)	0.85	0.13
CCOC(=O)c1ccc(Cn2c3ccc(OC(F)(F)F)cc3c3nc4ccccc4nc32)o1	x	0.75
COc1ccc(C(Nc2cc(C)on2)c2c(C)[nH]c3ccccc23)cc1OC (centres undefined)	-1.1	-0.6
O=C(c1ccc(NCc2ccc(F)cc2)c(S(=O)(=O)Nc2cccc(C(F)(F)F)c2)c1)N1CCCC1	x	2
O=C(c1ccccc1)c1cccc(N=Cc2c(O)[nH]c(=O)[nH]c2=O)c1	0.2	0.92
O=C(CCSc1nc(-c2ccco2)cc(C(F)(F)F)n1)NCc1ccncc1	-1.2	0.3
C=CCn1c(=S)[nH]c2cc(OCC)c(OCC)cc2c1=O	-0.25	-0.02
O=C(c1ccc(C(F)(F)F)cc1)N(C(=O)c1ccc(C(F)(F)F)cc1)c1nccc2cccnc12	x	-0.45
OC(CCN1CCOCC1)(c1ccc(Cl)cc1)C1CCCCC1 (centres undefined)	0.25	1.5
O=C(NN1S(=O)(=O)c2ccccc2S1(=O)=O)c1ccc(OCc2ccc(F)cc2)cc1	x	-0.59
CSc1c(C#N)c(-c2cccs2)nn1C(=O)C(C)(C)C	0.35	0.89
NC(=O)Cn1nnc(-c2ccccc2)n1	-0.45	0.43
Cc1ccc2nc(NC(=O)C(C)C)sc2c1	-0.9	x
Cc1ccc(OC(=O)CN(c2ccccc2)S(=O)(=O)c2ccccc2)cc1	x	-0.035
O=C(CN(Cc1ccccc1F)C(=O)c1ccco1)NCc1ccc(F)cc1	2.3	x
Cc1ccccc1N1C(=O)CC(SC2=NCCS2)C1=O (centres undefined)	-0.45	x
CN1C(C(=O)Nc2ccccn2)=C(O)c2ccccc2S1(=O)=O	0.6	0.17&-0.71
CC(=O)NCCc1nc2ccccc2[nH]1	-0.25	-0.43
Cc1nc(C(C)(C)C)[nH]c(=O)c1Cl	-0.35	0.31
COc1ccccc1NC(=O)c1c(C)nc(SCc2ccccc2)c(C#N)c1-c1ccc(C)o1	0.75	x
COc1ccc(CNc2nc(NCc3ccc(OC)cc3)n(S(C)(=O)=O)n2)cc1	-0.6	-0.28
CC1(C)CSC(Nc2ccccc2F)=N1	-0.7	-0.8
O=C(O)c1ccc(N=Cc2cn(-c3ccccc3)nc2-c2cccs2)cc1	-0.3	x
Cc1[nH]n(C)c(=O)c1N=Nc1ccc(S(C)(=O)=O)cc1	x	-0.6
c1ccc(C2=NN(c3ccccc3)C(c3ccccc3)=C(c3ccccc3)S2)cc1	x	-0.05
Cn1c(=S)[nH]c2cc(C(=O)NC3CCCCCC3)ccc2c1=O	-0.65	x
CCCN1C(=O)c2ccccc2NC1c1ccc(Br)cc1 (centres undefined)	0.35	52
Cc1ccc(C(=O)NC(C)C(c2cccs2)N2CCCC2)s1 (centres undefined)	-0.55	-0.69
CCN(CC)S(=O)(=O)c1ccc(C(=O)OCC(=O)c2ccc3c(c2)OCCO3)cc1	-0.1	x

2 entries from above, with two lines to a compound.
The line under a structure holds: AID504770 | CapD inh
COc1ccccc1NC(=O)c1c(C)nc(SCc2ccccc2)c(C#N)c1-c1ccc(C)o1
→ 0.75 | x
COc1ccc(CNc2nc(NCc3ccc(OC)cc3)n(S(C)(=O)=O)n2)cc1
→ -0.6 | -0.28

Part of the list above, set out differently:
| Compound | AID504770 | CapD inh |
| --- | --- | --- |
| Cn1c(=S)[nH]c2cc(C(=O)NC3CCCCCC3)ccc2c1=O | -0.65 | x |
| CCCN1C(=O)c2ccccc2NC1c1ccc(Br)cc1 (centres undefined) | 0.35 | 52 |

(continued)
SMILES	AID504770	CapD inh
CCCSC1=N/C(=C/c2cccs2)C(=O)N1c1ccc(F)c(Cl)c1	0.75	-0.005
COc1ccc(/C=C(\C#N)S(=O)(=O)c2ccccc2)cc1CSCc1ccco1	0.2	0.08
CC(C)NC(=S)N/N=C/c1ccco1	0.3	-4*
O=c1c2c(nc3cc(-c4ccco4)[nH]n13)CCCC2	0.35	x
N=C1C(c2nc3ccccc3s2)=C(O)CN1c1ccc(S(N)(=O)=O)cc1	-1.1	51
NC(=S)c1cccnc1	-0.1	x
COc1ccc(-c2nnc3c4ccccc4c(C)nn23)cc1S(=O)(=O)N1CCN(C)CC1	-0.45	0.59
CCOc1cc(/C=N/NC(N)=S)cc(I)c1O	-0.2	0.12
CCOC(=O)N1CCC(NC(=O)CSCc2nc(-c3ccc(C)cc3)oc2C)CC1	0.55	-0.055
Cc1ccc2cc3c(nc2c1)N(Cc1ccco1)CC3	-0.4	0.17
CSc1nc2cc(S(C)(=O)=O)ccc2n1C(C)C	x	-0.12
CCc1ccc(S(=O)(=O)NCCc2cn3ccccc3n2)s1	-0.45	0.065
CN1C(C(=O)N2CCC3(CC2)OCCO3)=CC(c2ccc(F)cc2)=NS1(=O)=O	0.1	1.6
Cc1ccc2c(CC(=O)NCc3ccccc3)coc2c1	2.2	x
O=S(=O)(/N=C(\Nc1cccc2ccccc12)c1ccccc1)c1ccccc1	0.6	0.16
C=Cn1ccnc1P(=NN=Nc1ccc(S(N)(=O)=O)cc1)(N(CC)CC)N(CC)CC	-0.4	x
O=C1CSC(c2ccc(Br)cc2)N1c1ccccn1 (centres undefined)	x	0.63
CC(C)(C)Sc1ccccc1CN1CCN(C(=O)OCc2ccc(C(F)(F)F)c(F)c2)CC1	x	0.42
N#CC(=C1CCN(Cc2ccccc2)CC1)c1ccccc1	-0.8	x
O=C(NC1CCCCC1)c1ccc(N2CCCC2=O)cc1	-0.35	-0.005
Cc1ccc(C(=O)Nc2ccc3c4c2C2C=CCC2CN4CC2CC=CC32)cc1 (centres undefined)	x	-0.035
O=C(Cc1cccs1)NN1CCOCC1	0.9	0.055
CC(=O)N1c2c(cc(Br)cc2S(=O)(=O)N2CCN(C(=O)c3ccco3)CC2)CC1C (centres undefined)	1.8	0.065
Cc1ccc(C)c(OCc2nnc(SCc3nc4ccccc4s3)o2)c1	-0.45	x

4 of these compounds, set out differently.
structure: O=C(Cc1cccs1)NN1CCOCC1
- AID504770 = 0.9
- CapD inh = 0.055

structure: O=C(NC1CCCCC1)c1ccc(N2CCCC2=O)cc1
- AID504770 = -0.35
- CapD inh = -0.005

structure: N#CC(=C1CCN(Cc2ccccc2)CC1)c1ccccc1
- AID504770 = -0.8
- CapD inh = x

structure: C=Cn1ccnc1P(=NN=Nc1ccc(S(N)(=O)=O)cc1)(N(CC)CC)N(CC)CC
- AID504770 = -0.4
- CapD inh = x

3 structures already listed, arranged by length of the SMILES, high to low:
SMILES	AID504770	CapD inh
Cc1ccnc(NC(c2ccc3c(c2)OCO3)c2c(C)[nH]c3ccccc23)c1 (centres undefined)	-0.65	-0.49
Cc1ccc2cc3c(nc2c1)N(Cc1ccco1)CC3	-0.4	0.17
NC(=O)Cn1nnc(-c2ccccc2)n1	-0.45	0.43

(cont.)
SMILES	AID504770	CapD inh
Cc1cc2nc(C)n(CCCNC(=O)Nc3cccc4ccccc34)c2cc1C	0.75	0.87
CN1CCN(c2ccc(Nc3ccnc4cc(Cl)ccc34)cc2Cl)CC1	-0.25	-1.2
COc1cc(C(=O)N/N=C/c2c[nH]c3cnc(OCc4ccccc4)cc23)cc(OC)c1OC	x	3.3
CC(C)NC(=O)Oc1noc2cc(Cl)ccc12	1.5	0.7
Cc1ccc(-n2nc(C(=O)O)c(C)c(C#N)c2=O)cc1	1	-1.9
Cn1c2c(c3ccccc31)C(=O)CCC2	x	1.1
CCN(CC)C(=O)Cn1c2cc(OC)c(OC)cc2c2nc3n(c(=O)c21)CCS3	-0.75	x
C#CCSc1ncc(C(=O)O)c(C(OC)OC)n1	-0.8	-1.3
O=C1C2C3c4ccccc4C(c4ccccc43)C2C(=O)N1CCN1CCCCC1 (centres undefined)	0.45	x
Nc1ncnc2c1ncn2C1O[C@H](COP(=O)(O)O)[C@@H](O)[C@H]1O (some centres undefined)	0.65	77
O=[N+]([O-])c1ccc(Oc2cncc(Cl)c2)nc1	x	-0.56
Cc1ccc2nc(CSc3nnc4ccccn34)cc(=O)n2c1	0.3	x
COc1ccc(C2/C(=C(\O)c3ccccc3)C(=O)C(=O)N2CCCN2CCOCC2)cc1 (centres undefined)	x	-0.29
CCCCOC(=O)C1=C(C)N(C)C(=O)NC1c1cc2c(cc1Br)OCO2 (centres undefined)	x	-0.085
CCCOc1ccccc1C1NC(=O)NC(C)=C1C(=O)OCc1ccc2c(c1)OCO2 (centres undefined)	x	-0.05
COc1ccccc1C(=O)Nc1sc2c(c1C(N)=O)CC(C)CC2 (centres undefined)	1.6	i
Cc1ccccc1CC(Cc1nc2ccccc2[nH]1)c1nc2ccccc2[nH]1 (centres undefined)	x	-0.16
COCCN(C1CCN(C)CC1)S(=O)(=O)c1ccc(NC(=O)c2cccs2)cc1	x	-0.18
CNC(=O)N(O)C1N(NC(=O)Nc2ccccc2)C(=S)SC1(C)C (centres undefined)	-0.15	-0.025
CCN(CC)c1cc(N(CC)c2ccccc2)c([N+](=O)[O-])c2nonc12	x	-0.29
CC(Oc1ccccc1)C(=O)Nc1c(C(=O)N2CCCC2)oc2ccccc12 (centres undefined)	-0.35	2.9
Cc1cc(NNC(=O)Nc2cccc(Cl)c2)nc2c1c(C)nn2C	2.3	0.12
N#CCCN1CCN(S(=O)(=O)c2ccc(C#N)cc2)CC1	0.25	0.55
O=C1CC(C(=O)Nc2cccc(C(=O)O)c2)C(c2ccccc2)O1 (centres undefined)	1.5	-0.44
O=c1oc(-c2ccncc2)nc2sc3c(c12)CCCCC3	x	-0.15
O=c1c2ccccc2nnn1CSc1nc2ccccc2c(=O)n1CC1CCCO1 (centres undefined)	-0.7	x
Cc1sc2ncn(CC(=O)NCC(=O)N3CCN(c4ccccn4)CC3)c(=O)c2c1C	x	0.72
CCOc1cc(N2CCOCC2)c(OCC)cc1NC(=O)c1c(C)nn(-c2ccccc2)c1C	0.1	x
CCCNc1ncnc2c1cnn2C	-0.45	-1
CC(C)NC(=S)N1CCN(S(C)(=O)=O)CC1	-0.8	-0.4
CN(C(=O)CSc1nnc2c(Cl)cc(Cl)cn12)C1CCS(=O)(=O)C1 (centres undefined)	0.6	x
Cc1ccc(C)n1CC(F)(F)F	-0.15	0.25
N/C(Cc1ccc(-c2csnn2)cc1)=N\OC(=O)C1CC1	0.55	0.61
O=C(Nc1ccccc1)Nc1cccc(-c2nnco2)c1	-0.45	1.2
c1ccc2c(CNc3ncn[nH]3)cccc2c1	-0.35	x
CN1C(=O)C(=Cc2ccc(OCc3c(F)cccc3Cl)cc2)C(=O)N(C)C1=O	x	-0.085
